Bioassay records: PubChem BioAssay, National Center for Advancing Translational Sciences (NCATS)
TRPV1 PAM = human TRPV1 potentiation | TRPV1-expressing cells, Fluo-8 calcium influx, capsaicin EC20 potentiation; host cell line not named in the record; control for the full effect not named in the record | potentiation, % at 8.33 µM | actives 0.02% (n = 320,000); active means potentiation above 80%; inconclusive means 30% to 80%; inactive means below 30%; note: 0% is about no effect
Target sequence (Q8NER1 whole entry, looked up): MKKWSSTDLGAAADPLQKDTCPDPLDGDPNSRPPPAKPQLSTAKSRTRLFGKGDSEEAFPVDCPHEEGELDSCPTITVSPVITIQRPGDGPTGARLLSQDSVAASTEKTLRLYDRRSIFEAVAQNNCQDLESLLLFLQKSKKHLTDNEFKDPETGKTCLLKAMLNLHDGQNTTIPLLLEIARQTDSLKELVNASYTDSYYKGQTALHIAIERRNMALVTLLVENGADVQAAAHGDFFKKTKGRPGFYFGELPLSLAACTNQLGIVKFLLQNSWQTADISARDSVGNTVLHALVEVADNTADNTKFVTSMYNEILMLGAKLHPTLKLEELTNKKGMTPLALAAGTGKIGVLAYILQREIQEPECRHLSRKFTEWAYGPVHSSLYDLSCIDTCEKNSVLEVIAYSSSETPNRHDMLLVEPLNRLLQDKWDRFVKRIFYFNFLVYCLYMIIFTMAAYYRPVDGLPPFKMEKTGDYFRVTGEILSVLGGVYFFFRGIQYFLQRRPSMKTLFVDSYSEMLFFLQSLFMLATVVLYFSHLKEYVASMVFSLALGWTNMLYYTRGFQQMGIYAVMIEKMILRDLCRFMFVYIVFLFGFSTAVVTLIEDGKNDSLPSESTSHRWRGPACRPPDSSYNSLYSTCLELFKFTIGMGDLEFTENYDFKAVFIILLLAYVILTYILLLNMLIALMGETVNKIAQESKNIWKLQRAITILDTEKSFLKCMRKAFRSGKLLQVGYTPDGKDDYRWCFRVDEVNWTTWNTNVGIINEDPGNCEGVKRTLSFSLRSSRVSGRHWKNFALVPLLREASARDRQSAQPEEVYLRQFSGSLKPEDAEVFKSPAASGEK
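Cells expressing TRPV1 were dye-loaded with Fluo-8 and read kinetically: 10 s baseline, 3 min after compound (agonist portion), then 2 min after EC20 capsaicin (allosteric enhancer portion). Calcium-bound dye fluorescence at 480/520 nm.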
PINK1 modulator = PINK1 expression modulation; PINK1 immunofluorescence, high-content cytometry, 24 h; Potency, µM (top dose mostly 76.6 µM), without a hit: at the top dose activation (PINK1 increase), actives largely listed as activators; actives 0.2% (n = 410,000); active = well fitted activation curve with a large enough effect; inconclusive = small, poorly fitted or top-dose-only effect; inactive = flat fitted curve, though single readings scatter; cell line not stated here;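 note: potency is the fitted concentration of half-maximal effect; % of control where 0% means no effect; nearly all actives have a fitted effect of over 65% in size; a mitochondrial uncoupler was the plate control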
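Decision-based qHTS: stable cells, 24 h exposure to five compound concentrations, CCCP as control. Fixed cells stained for PINK1 plus nuclear, mitochondrial and cell markers, cytometer read.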
Sfp PPTase inh = inhibitors of Bacillus subtilis Sfp phosphopantetheinyl transferase; Q9F4F7; Biochemical Sfp PPTase activity, qHTS; Potency, µM, for inactives: max response, negative = inhibition, most hits filed as inhibitors; actives 3.5% (n = 310,000); AID 1490; active = well fitted inhibition curve with a large enough effect; inconclusive = small, poorly fitted or top-dose-only effect, or another doubt; inactive = no such curve, though single readings can be large or run the other way;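 note: the enzyme is Sfp with the accession as filed and its product quenches rhodamine fluorescence; potency is the fitted concentration of half-maximal effect; 0% = enzyme reaction without inhibitor and -100% = no enzyme wells; top concentration of the series not given in the record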
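Compounds were incubated with enzyme (final 15 nM) for 15 min at room temperature before substrate addition started the reaction. Fluorescence at 525 nm excitation, 598 nm emission was recorded immediately and after 30 minutes.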
* = called active by the depositor; i = inactive; ? = inconclusive; . = not tested or not shown; & = joins results of further samples.

SMILES | TRPV1 PAM | PINK1 modulator | Sfp PPTase inh
COc1cccc(Cn2c(C3CC3)nc3ccc(NC(=O)c4ccco4)cc3c2=O)c1 | 19.6 | . | 7.5%
CN(C)S(=O)(=O)c1cccc(NC(=O)c2cnccn2)c1 | 6.2 | . | -18.0%
O=C(Nc1nccs1)c1c(O)c2cccc3c2n(c1=O)CCC3 | 2.7 | . | 9.1%
O=C(Cc1csc(-c2ccccc2)n1)NCc1ccccc1F | -15.4 | . | -0.7%
COC(=O)c1c(-c2ccc(C)cc2)csc1NC(=O)c1c(-c2ccccc2)noc1C | 3.2 | . | -4.1%
O=C(Cn1nnc2ccccc21)OCC(=O)c1ccc(Cl)cc1 | -14.6 | . | 7.5%
Cc1ccc(S(=O)(=O)n2[nH]c(=O)cc2NC(=O)c2cccs2)cc1 | 1.2 | . | 8.0%
O=C(NCCCN1CCCC1)c1ccc(Cn2c(=S)[nH]c3ccc(Br)cc3c2=O)cc1 | 6.2 | . | -8.7%
C(=C\c1ccc(/C=C/c2ccccc2)nn1)/c1ccccc1 | 2.6 | . | 24.6%
COc1ccc(N2C(C(C)=O)=NN(c3ccccc3)C2c2cccs2)cc1 (stereo unspecified) | -0.5 | . | 17.4%
C/C(=N\NC(=O)c1ccc2nc[nH]c2c1)c1ccc([N+](=O)[O-])cc1 | -0.4 | . | 11.5%
Cc1sc2nc(CSc3nc4ccccc4s3)[nH]c(=O)c2c1C | 8.1 | . | -0.4%
COc1ccc2nc3sc(C(=O)NCc4cccs4)c(N)c3cc2c1 | ? | . | -0.2%
Cc1ncc(CO)c(/C=N/NC(=O)c2cc(O)c(O)c(O)c2)c1O | 12.8 | . | 20µM*
Cc1c(Cl)cccc1Nc1ncccc1C(=O)OCC(O)CO (stereo unspecified) | 10.0 | . | 8.5%
CCN1CCN(CCCNC(=O)C(NC(=O)C2CCC(C)CC2)C(C)C)CC1 (stereo unspecified) | -2.3 | . | 6.7%
O=C(Cc1cccs1)Nc1nnc(Cc2ccc(F)cc2)s1 | 16.9 | . | 18.4%
CN(C)c1nc(NCc2ccccc2)nc(N/N=C/c2ccccc2F)n1 | -6.8 | . | 7.5%
COC(=O)c1ccc(-c2ccc(C(=O)N3CCCN(C)CC3)cc2)cc1 | 25.8 | . | -4.5%
Cc1ccc2c(COn3nnc4ccc(S(=O)(=O)N(C)C)cc43)cc(=O)oc2c1C | 13.6 | . | 3.2%
O=C(COc1ncnc2scc(-c3ccccc3)c12)NCCN1C(=O)CSC1=O | -5.6 | . | -2.7%
COc1cccc(/C=N/N2C(=O)C3C4c5ccccc5C(c5ccccc54)C3C2=O)c1OC (stereo unspecified) | 11.8 | . | 14.7%
N=c1oc2cc(O)ccc2cc1C(=O)Nc1ccccn1 | 4.7 | . | 6.7%
CCOC(=O)c1c2ccc(OCC(=O)N/N=C/c3ccc(Cl)cc3)cc2n2ccccc12 | 20.7 | . | 6.4%
O=C(OC1CCCCC1)c1ccc2c(c1)C1C=CCC1C(C(=O)O)N2 (stereo unspecified) | 6.1 | . | -17.9%
Cc1cc2c(c(=O)n1-c1ccccc1)C1O[C@](c3ccsc3)(Cc3ccccc31)O2 | i | . | -6.3%
CC(C)N1CCc2c(sc(NC(=O)c3ccc([N+](=O)[O-])o3)c2C(N)=O)C1 | 12.4 | . | 0.9%
O=C(CNC(=O)c1ccccc1)NCCc1ccc(O)c(O)c1 | 9.0 | . | 50.1µM*
CC(C)(C)c1ccc(O)c(N)c1 | 4.3 | . | ?
CCn1c(=N)c(S(=O)(=O)c2ccc(Cl)cc2)cc2c(=O)n3ccccc3nc21 | -7.2 | . | 27.8%

Entries of single compounds, looked up by structure:
COc1cccc(/C=N/N2C(=O)C3C4c5ccccc5C(c5ccccc54)C3C2=O)c1OC (stereo unspecified) in the list: TRPV1 PAM = 11.8; PINK1 modulator = .; Sfp PPTase inh = 14.7%
N=c1oc2cc(O)ccc2cc1C(=O)Nc1ccccn1 in the list: TRPV1 PAM = 4.7; PINK1 modulator = .; Sfp PPTase inh = 6.7%

Continuation.
SMILES | TRPV1 PAM | PINK1 modulator | Sfp PPTase inh
Cn1c(SCC(=O)N=Nc2c(O)[nH]c3ccccc23)nc2ccccc21 | 11.9 | . | 1.8%
OCCN1CCN(C(c2cccs2)c2ccc3cccnc3c2O)CC1 (stereo unspecified) | -2.6 | . | 15.8µM*
CCOc1ccccc1Nc1nc(-c2sc(NC(=O)c3ccc([N+](=O)[O-])cc3)nc2C)cs1 | 4.2 | . | -1.9%
Cc1ccc(SCC(=O)NC(=O)NCc2ccco2)cc1C | -0.7 | . | -10.8%
COc1ccc(OC)c(S(=O)(=O)NC(N)=NCCc2ccccc2OC)c1 | 20.4 | . | 7.9%
COC(=O)[C@@H]1CC[C@H](C)[C@@H](c2ccc(C)cc2)N1C(=O)c1ccc(/C=N/OC[C@@H](O)[C@H]2O[C@@H]3OC(C)(C)O[C@@H]3[C@H]2O)cc1 | -0.2 | . | -15.0%
Cc1cc(C)c2[nH]c(=O)c(CN(Cc3ccco3)C(=O)c3cccs3)cc2c1 | -0.4 | . | ?
Cc1ccccc1Nc1nnc(SCc2nc3ccccc3c(=O)[nH]2)s1 | 8.6 | . | -0.8%
Cc1cnc(C(=O)Nc2ccc(C(=O)N(C)C3CCCCC3)cc2)cn1 | -11.2 | . | -4.6%
COc1ccc(OCc2cc(C(=O)NC3CCOC(C)(C)C3)no2)c2ccccc12 (stereo unspecified) | -4.9 | . | -0.9%
CCN1CCc2c(OCC(=O)Nc3cccc(C)c3C)cccc2C1=O | 10.6 | . | 18.7%
CCOC(=O)N1CCN(c2ncnc3c2cnn3-c2ccc(Cl)cc2)CC1 | 17.6 | . | 4.9%
COc1ccc(-c2cnnc(N/N=C/C(C)=C/c3ccccc3)n2)cc1 | 13.0 | . | 7.1%
O=C(NCCN1C(=O)S/C(=C\c2cccs2)C1=O)c1ccc(=O)[nH]c1 | -1.2 | . | 11.7%
O=c1c2ccccc2nc2c3ccccc3c(NCCN3CCOCC3)nn12 | 8.5 | . | -10.4%

Among those listed so far, 5 have a Cl atom.
SMILES | TRPV1 PAM | PINK1 modulator | Sfp PPTase inh
O=C(Cn1nnc2ccccc21)OCC(=O)c1ccc(Cl)cc1 | -14.6 | . | 7.5%
Cc1c(Cl)cccc1Nc1ncccc1C(=O)OCC(O)CO (stereo unspecified) | 10.0 | . | 8.5%
CCOC(=O)c1c2ccc(OCC(=O)N/N=C/c3ccc(Cl)cc3)cc2n2ccccc12 | 20.7 | . | 6.4%
CCn1c(=N)c(S(=O)(=O)c2ccc(Cl)cc2)cc2c(=O)n3ccccc3nc21 | -7.2 | . | 27.8%
CCOC(=O)N1CCN(c2ncnc3c2cnn3-c2ccc(Cl)cc2)CC1 | 17.6 | . | 4.9%

Entries above that bear a hit mark in Sfp PPTase inh:
| SMILES | PINK1 modulator | Sfp PPTase inh |
| --- | --- | --- |
| Cc1ncc(CO)c(/C=N/NC(=O)c2cc(O)c(O)c(O)c2)c1O | . | 20µM* |
| O=C(CNC(=O)c1ccccc1)NCCc1ccc(O)c(O)c1 | . | 50.1µM* |
| OCCN1CCN(C(c2cccs2)c2ccc3cccnc3c2O)CC1 (stereo unspecified) | . | 15.8µM* |

Next section
SMILES | TRPV1 PAM | PINK1 modulator | Sfp PPTase inh
Cc1nc(N2CCCCC2)sc1C=O | 2.0 | . | 22.4%
O=c1oc2c(CN3CCCCCC3)c(O)ccc2cc1-c1nc2ccccc2[nH]1 | -14.3 | . | -0.5%
CC1=C(C(=O)Nc2ccc(Cl)cc2)C2(CCCCC2)C(C(N)=O)C(=S)N1 (stereo unspecified) | -1.6 | . | 0.8%
Cc1ccc(NC(=O)N(Cc2cccs2)Cc2cc3cc4c(cc3[nH]c2=O)OCO4)cc1 | -3.0 | . | 9.3%
CCN(CC)c1ccc(/C=C(\C#N)C(=O)NCc2ccco2)cc1 | 18.8 | . | 1.6%
C=CCn1c(SCC(=O)OC)nc2sc3c(c2c1=O)CCN(C)C3 | 2.1 | . | -0.8%
CC1(C)Cc2nc3sc4c(N5CCCC5)nnnc4c3cc2CO1 | -4.4 | . | 18.2%
N=c1c(S(=O)(=O)c2ccc(Cl)cc2)cc2c(=O)n3ccccc3nc2n1CCc1ccccc1 | 17.6 | . | 25.1µM*
CC(=O)[C@@H]1[C@@H]2C(=O)N(c3ccc(F)c(Cl)c3)C(=O)[C@@H]2C2c3ccccc3C=CN21 (stereo partly specified) | 16.4 | . | 11.0%
c1ccc(COc2ccc(-c3sc(Nc4ccccc4)n[n+]3-c3ccccc3)cc2)cc1 | -2.0 | . | 56.2µM*
COCCCn1c(-c2ccc(OC)cc2)nc2nc3ccccc3nc21 | -1.4 | . | 7.7%
Cn1c(=O)c2c(SCC(=O)N3CCOCC3)nc(C3CCCCC3)nc2n(C)c1=O | -0.9 | . | 20.6%
CCC(=O)N1CC2(CC(c3cccc(NC(=O)COc4ccc(Cl)cc4)c3)=NO2)C[C@@H]1C(N)=O (stereo partly specified) | -3.0 | . | 14.7%
CC(=O)C1=C(C)NC(SCC(=O)c2ccc(-c3ccccc3)cc2)=C(C#N)C1c1cccnc1 (stereo unspecified) | 1.6 | . | 22.4µM*
COc1ccc(-c2nsc3c(N4CCN(S(=O)(=O)c5ccccc5)CC4)ncnc23)cc1 | -40.3 | . | 6.5%
Cc1nnc(NC(=O)CCC(=O)N2CCN(CCc3ccccc3)CC2)s1 | -10.1 | . | 15.3%
Oc1ccc(/C=N/Nc2ccc(C(F)(F)F)cn2)c(O)c1 | -4.3 | . | 15.9%
COC(=O)[C@@]1(Cc2ccc(OC)cc2)[C@H]2c3cc(C(=O)N4CCCC4)n(Cc4ccc(C)o4)c3C[C@H]2CN1C(=O)c1ccccc1 | -15.2 | . | ?
COc1cccc(C(=O)NC2CCN(CC(=O)Nc3c(C)cc(C)cc3C)CC2)c1 | -4.2 | . | 13.2%
O=C(COC(=O)c1ccccc1NS(=O)(=O)c1cc([N+](=O)[O-])ccc1Cl)c1ccccc1 | 10.3 | . | 4.9%
COc1ccc(O[C@H]2C=C[C@@H](c3ccccc3)O[C@@H]2CO/N=C(\C)CCN2CCCCc3nc(C)c(C)cc32)cc1 | ? | . | -11.3%&-9.6%
Cn1c(=O)c(C(=O)COC(=O)c2cc(C(F)(F)F)nc3c(C(F)(F)F)cccc23)c(N)n(CC2CC2)c1=O | 16.5 | . | 10.6%&-3.6%
Fc1ccccc1Nc1nc2c(s1)CCc1ccccc1-2 | 27.7 | . | 3.16µM*
CC(=O)c1ccc(NC(=O)CSc2nnc3ccc(-c4ccc(F)cc4)nn23)cc1 | . | 22.2% | .
CSc1cccc(NC(=O)Cn2c3ncccc3c(=O)n2-c2ccc(C)cc2)c1 | . | 0.2% | .
COc1ccc(-c2noc(N3CCC(C(=O)Nc4ccc(F)cc4Cl)CC3)n2)cc1 | . | -0.2% | .
COc1ccc(CCNC(=O)CSc2n[nH]c(-c3ccccc3Cl)n2)cc1OC | . | 0.0% | .
COc1ccc(-c2cn3c(n2)sc2cc(C(=O)NCC(C)c4ccccc4)ccc23)cc1 (stereo unspecified) | . | 2.6% | .
COc1ccc(Cn2ccc3nc(C)c(C(=O)Nc4ccc(OC)cc4)cc3c2=O)cc1 | . | 0.5% | .
COc1ccc(CNC(=O)c2cccc(N3CCCS3(=O)=O)c2)cc1 | . | 0.3% | .
COc1ccc(S(=O)(=O)N(CCc2ccccc2)CC(=O)Nc2cc(C)ccc2C)cc1 | . | -0.6% | .
O=C(c1ccc2c(c1)N(Cc1ccc(Cl)cc1)C(=O)c1ccccc1S2=O)N1CCN(c2ccccc2F)CC1 (stereo unspecified) | . | 2.9% | .
CCc1ccc(NC(=O)Cn2c(SCc3ccc(C)cc3)nc3ccncc32)cc1 | . | 13.0% | .
CC(C)COc1ccc(C(=O)N(Cc2cccc(F)c2)C2CCS(=O)(=O)C2)cc1 (stereo unspecified) | . | 4.0% | .
Cc1ccc(CNC(=O)c2nc(-c3ccc(Cl)cc3)n3c2CCCCC3)cc1 | . | 2.3% | .
CCOc1ccc(CCn2c3c(c(=O)[nH]c2=O)C(NC(=O)c2cccc(F)c2)(C(F)(F)F)C(=O)N3)cc1OCC (stereo unspecified) | . | 1.8% | .
O=C(Nc1noc2ccccc12)c1c(F)cccc1F | . | 0.7% | .
COc1cccc(C(=O)Nc2ccc(Cl)c(-c3nc4ccccc4[nH]3)c2)c1 | . | 3.3% | .

Some of the compounds tested; rates above refer to the full screens.
